Source: PubChem BioAssay
PrP 5UTR inh: inhibition of PrP 5' UTR reporter expression; cell-based PrP 5' UTR mRNA reporter, plate reader; inhibition, % (no concentration beside the values); 340,000 compounds, 0.35% hits; AID 488862;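 active = every replicate at 50% or more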;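 note: 0 = median of the neutral control wells; tested in H4 reporter cells; numbers are from one replicate; inactives centre near -14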
Sa ugtP lethal: growth inhibition of S. aureus ugtP deletion strain | growth inhibition, % (no concentration beside the values) | AID 1259309 | S. aureus RN4220 ugtP deletion, OD600 growth, 16 h; some inactives read as strong as hits | 330,000 compounds, 0.54% hits;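 active = z-score under -3 and OD600 up to 0.15 on both plates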;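 note: plate controls were untreated wells for no effect and antibiotic for full effect; wells of about 80 µL received 100 nL stock; the first replicate is given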
BJeLR viability: BJeLR cell viability loss | inhibition, % (concentration not given with the values) | 300,000 compounds, 0.17% hits | AID 1554 | BJeLR (HRASV12) viability, CellTiter-Glo ATP luminescence, 48 h; reference of the scale not given here;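 active = replicate mean above 50%; inconclusive = above 50% but judged a plate artefact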;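 note: 50 nL library stock added to about 25 µL; numbers are from one replicate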
RN4220 kill: kills Staphylococcus aureus RN4220. S. aureus RN4220 growth, OD600, 16 h. inhibition, % (no concentration beside the values). 330,000 compounds, 0.33% hits;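 active = z-score of -3 or lower and OD600 up to 0.18 on both plates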;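 note: plate controls were untreated cells for no effect and reference antibiotic for full effect; stock transfer was 100 nL into about 80 µL; one replicate is shown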
Mtb hypoxia rep: Mtb hypoxia fluorescent reporter inhibition. 300,000 compounds, 0.1% hits. AID 1159583. M. tuberculosis hypoxia-regulated fluorescent reporter, fluorescence. fluorescence inhibition, % (test concentration not listed);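 active = 35 to 45% if threefold the growth effect, above 45% if 1.5-fold the growth effect; inactive = the rest, general growth blockers included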;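 note: wells of about 50 µL received 100 nL stock; 0% = vehicle wells and 100% = reference inhibitor wells; whole bacteria with a GFP reporter of the hypoxia response; strong numbers were not always called active; many hits fall short of the cut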
Autofluor counter: flagged as autofluorescent in microsphere protease counterscreen. 360,000 compounds, 3.1% hits. fluorescence intensity (concentration not given with the values). AID 624483. compound autofluorescence counterscreen, microsphere flow cytometry; hits give high values;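 active = at least 3 SD above the mean of all compounds, about 16000 in these data; inconclusive = too few beads counted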;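 note: 100 nL of 1 mM stock went into each well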
Mtb hypoxia rep growth: recorded beside Mtb hypoxia rep, whose call it bears; growth inhibition, %; measured here: M. tuberculosis growth (absorbance);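 0% = vehicle and 100% = reference antibiotic; read after six days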
Starred values were filed as active, the others as inactive; u = inconclusive; x = not tested or not shown; & = joins results of further samples.

SMILES	PrP 5UTR inh	Sa ugtP lethal	BJeLR viability	RN4220 kill	Mtb hypoxia rep	Mtb hypoxia rep growth	Autofluor counter
COC(=O)C1CN(C(=O)COc2ccccc2C)c2ccccc2O1 (configuration not stated)	-12	3	9	3.1	0	-6	3596
C#CCOCCOCCOCCNc1nc(N2CCN(C(=O)C(CCCCN)n3cc(C(N)CC(N)=O)nn3)CC2)nc(N2CCN(C(=O)C(CC(N)=O)n3cc(C(N)C(C)CC)nn3)CC2)n1 (configuration not stated)	x	-5	x	7.4	3	2	x
O=C(Nc1ccccc1)C1CCCN1S(=O)(=O)c1cccs1 (configuration not stated)	-13	2	4	2.0	-2	5	u
COc1cccc(OCCNC(=O)CSc2ccc(C(F)(F)F)cc2[N+](=O)[O-])c1	-10	2	2	1.5	8	-4	2495
COc1ccc(C=NNC(=O)CC(=O)Nc2cccc(Cl)c2)cc1OC	x	13	x	7.0	9	2	x
Oc1cccc(-n2nnnc2SCc2ccccc2F)c1	-13	9	3	4.1	6	2	4021
COCCNC(=O)COc1ncnc2ccc(Br)cc12	-6	1	-8	1.0	x	x	2610
Cc1c(C(=O)NNC(=O)c2ccccc2O)oc2ccc(Br)cc12	-25	-17	3	4.6	-2	-1	5757
CC1=CC(=O)C(C(C)=Nc2cccc(Cl)c2)C(=O)O1 (configuration not stated)	-18	-5	x	0.1	-11	-2	3624
CN(C)C=Nc1nc2nccc(-c3cccs3)n2n1	x	-1	x	2.7	2	9	x
CC(C)(C)CNC(CO)C12CC3CC(CC(C3)C1)C2 (configuration not stated)	-24	7	-11	-1.4	x	x	2445
CC1CCN(CC(=O)NC(=O)NCc2ccccc2)CC1	-44	4	13	1.1	8	6	9897
CCN(CC)S(=O)(=O)c1ccc(OC)c(NC(=O)C(Cc2ccccc2)N2C(=O)c3ccccc3C2=O)c1 (configuration not stated)	x	-2	-5	1.7	11	7	x
COc1cccc(C(=O)Nc2nnc(-c3cccs3)o2)c1	-30	1	6	18	0	9	3952
O=C(COC(=O)c1cnccn1)Nc1ccc(Cl)cc1	-9	7	14	3.4	x	x	2437
O=C(Nc1ccc(CN2CCCCC2)cc1)c1c(F)c(F)c(F)c(F)c1F	-21	1	-8	2.6	x	x	4251
O=C1N[C@@H](Cc2ccccc2)[C@@H](c2ccco2)O1	-10	x	-10	x	x	x	3317
COc1ccc(-c2n[nH]c(=S)n2/N=C/c2cccn2C)cc1	-6	x	6	x	x	x	4268
COc1ccc(C(=O)CN2C(=O)c3ccccc3C2=O)cc1	x	2	-14	2.6	-1	-2	x
Cc1ccc(C2C3=C(CC(C)(C)CC3=O)N(CCN3CCOCC3)C3=C2C(=O)CC(C)(C)C3)cc1	-7	3	-5	1.7	x	x	3398
COc1ccc(N2C(=O)CC(SC(C)C)C2=O)cc1 (configuration not stated)	1	5	-11	6.6	3	4	1969
COc1cccc(N=Nc2c(N)[nH]n3c(=O)c4c(nc23)CCCC4)c1	-22	24	-5	1.3	9	-6	4401
Cc1ccc(CSCC(Nc2ccc(C(=O)O)cc2[N+](=O)[O-])C(=O)O)cc1 (configuration not stated)	-3	2	-11	4.3	5	-1	7787
COc1ccc2c(c1)c(CC(=O)OCC(=O)N(C)C)c(C)n2C(=O)c1ccc(Cl)cc1	-19	4	2	2.7	6	3	6048
O=C1C(O)CC2c3ccccc3CC3(CCCC3)N12 (configuration not stated)	-10	2	-1	3.1	x	x	5468

(listing goes on)
SMILES	PrP 5UTR inh	Sa ugtP lethal	BJeLR viability	RN4220 kill	Mtb hypoxia rep	Mtb hypoxia rep growth	Autofluor counter
CC(=O)Oc1ccccc1C(=O)N(C1CCCCC1)C1CCCCC1	-8	3	2	7.0	3	4	3771
COc1ccc(-c2nc3c(-c4ccccc4)cnn3cc2C)cc1F	-28	4	5	-2.8	4	2	5124
O=C(CNS(=O)(=O)c1ccccc1)NCc1cccnc1	-15	10	6	5.6	-4	-2	2597
COc1ccc(OC)c(NC(=O)c2ccc(-n3cccn3)nc2)c1	-12	-9	1	-0.7	-12	7	9469
CC/C(C)=N\NC(=O)CNC(=O)c1ccc(Cl)cc1Cl	7	x	-6	x	x	x	2501
CCNC(=O)COc1ccc(CC)cc1	-18	9	6	5.7	13	9	3528
O=C(COC(=O)C1CCN(c2ccc(C(F)(F)F)cn2)CC1)NCc1ccc(Cl)cc1Cl	-20	14	12	-5.7	4	9	6951
CCN(CC)c1ccc(S(=O)(=O)N2CCOCC2)cc1NC(=O)Cn1nc(C)c([N+](=O)[O-])c1C	-11	2	x	4.2	-6	-3	x
Cc1ccccc1OCCCN1CCCC1	-30	-3	-16	2.9	5	5	17560*
CCNC(=O)CSc1nc2ccccc2c(=O)n1OC	-13	-3	-15	-16	25	-22	2896
CC(NC(=O)c1cn(C)c2ccc(S(=O)(=O)N3CCCC3)cc2c1=O)c1ccccc1 (configuration not stated)	-19	2	-2	-0.5	-3	10	5476
COc1ccc2c(c1)OCC1C2N2C(=O)C(C)NC(=O)[C@@]2(C)C1c1ccccc1 (some centres not stated)	x	8&1	x	16&6.1	4&22	15&16	x
CCn1c(SCC(=O)Nc2nccs2)nnc1-c1ccco1	-10	-10	-1	-2.8	3	-5	2493
CC(=O)NC1(C(F)(F)F)C(=O)Nc2c1c(=O)n(C)c(=O)n2C (configuration not stated)	-5	7	x	3.8	x	x	3297
O=C(CCS(=O)(=O)c1ccc2c(c1)NC(=O)CO2)NCc1ccccc1	-24	3	0	-0.7	4	-2	5069
CCC(=O)Nc1c2c(nn1-c1ccc(F)cc1)CS(=O)C2 (configuration not stated)	-2	11	-6	1.0	10	5	5760
Cc1cccc(C)c1NC(=O)CNC(=O)c1ccccc1OCc1ccccc1	-9	-4	2	15	2	5	4904
Cc1ccc(CN2CCN(C(=O)c3ccncc3)CC2)cc1	-28	6	-7	1.7	10	-3	2448
CC(=O)c1ccc(OCc2cc(C(=O)N(C)C(C)c3nccs3)no2)cc1 (configuration not stated)	-16	2	8	2.0	-4	5	5555
CN1CCN(C(=O)c2ccc3c(c2)N(Cc2ccccc2)CCS3)CC1	-3	9	5	22	-5	-10	6267
Cc1cc(=O)[nH]c2c(C)c(N)ccc12	-21	-8	6	5.3	1	10	23024*
Cc1ccc(-n2c(SC3CCOC3=O)nc3ccccc3c2=O)cc1 (configuration not stated)	x	11	7	2.9	11	8	x
CCN(CC)c1ccc(C=NNC(N)=O)cc1	x	-1	x	-0.3	-5	4	x
CCOC(=O)N1CCN(C(=O)c2ccc3c(=O)n(Cc4ccccc4OC)c(=S)[nH]c3c2)CC1	-3	9	-14	3.6	4	3	16581*
CCCC(CCC(=O)Nc1ccn(-c2ccccc2)n1)C(=O)O (configuration not stated)	-12	-2	8	1.3	-12	-4	4507

More entries.
SMILES	PrP 5UTR inh	Sa ugtP lethal	BJeLR viability	RN4220 kill	Mtb hypoxia rep	Mtb hypoxia rep growth	Autofluor counter
Cc1c(C(=O)N/N=C/c2ccccn2)nnn1-c1nonc1N	-18	x	-14	x	x	x	3952
Cc1ccnc2ccc(SC(F)(F)F)cc12	-14	5	3	6.6	18	3	2113
COc1ccc(-c2nc(-c3ccc(Br)o3)no2)cc1OC	-60	7	4	3.9	8	6	5783
CN1CC2C3C(=O)N(C)C(=O)C3[C@](Cc3ccccc3)(C1=O)N2C(=O)c1ccccc1 (some centres not stated)	x	-1	x	6.0	0	4	x
CCN(CC)S(=O)(=O)c1cccc(C(=O)NN=Cc2c(C)nn(-c3ccccc3)c2Cl)c1	x	10	x	9.3	4	-2	x
COC(=O)C1C[C@@]2(O)C(O)C(O)C(O)CC2N1Cc1cccc2ccccc12 (some centres not stated)	x	3	x	2.2	18	5	x
CN1CCC(N(C)C(=O)c2cc(-c3ccccc3Cl)nc3ccccc23)CC1	-3	3	x	2.7	-2	-1	6131
O=S(=O)(Nc1nc2ccccc2nc1Nc1ccc(N2CCOCC2)cc1)c1cc(Cl)ccc1Cl	-28	-8	7	5.6	0	-3	2649
CN1CCN(S(=O)(=O)c2ccc([N+](=O)[O-])cc2)CC1	-3	36	-4	34	13	2	3086
O=C(COc1ccc(Cl)cc1)N1CCCC1	-21	2	3	4.2	x	x	3608
Cc1ccc(C)c(NC(=O)CN(C)C(=O)c2ccc(S(=O)(=O)N3CCCCCC3)cc2)c1	-11	0	x	1.5	31*	66*	9056
Cc1ccc(Cl)c2sc(N3CCN(C(=O)c4ccco4)CC3)nc12	6	-9	7	2.4	6	-6	5284
O=C(COc1cc(Cl)c(Cl)cc1Cl)Nc1ccc([N+](=O)[O-])cc1Cl	-13	0	10	3.3	-6	-4	4097
Cc1ncc(CN2CCCCC2C(=O)Nc2ccc(Oc3ccccc3)nc2)cn1 (configuration not stated)	-11	-5	1	-0.2	6	5	6292
O=C(O)c1nc(NCc2ccccc2)ncc1Cl	-2	11	-1	3.4	1	-1	3258
COc1ccccc1C(=O)NC(=O)COC(=O)c1ccc(Br)o1	-25	3	x	4.0	-4	4	4977
O=C1CCCC(=O)N1c1ccc(Oc2ccc(Cl)cc2)cc1	-1	11	-4	5.2	4	4	2566
CCOC(=O)C1CCN(C(=O)c2cc3c(-c4ccc(OC)c(OC)c4)nn(C)c3s2)CC1	-29	12	6	20	-1	-1	7013
CN(C)CCCN(C(=O)c1ccc2c(c1)CCCC2)c1nc2c(F)cccc2s1	-14	-13	6	3.6	8	0	10215
Cc1[nH]n2c(=O)cc(C(C)C)nc2c1-c1ccccc1	-15	-5	1	-3.1	2	9	16017
COc1ccc(CNCCC(c2ccc(OC(C)C)cc2)c2ccccc2OC)cc1 (configuration not stated)	-2	-32	11	-6.6	1	2	3636
Cc1oc2c(C)c3oc(=O)c(CCC(=O)NCCCCCC(=O)O)c(C)c3cc2c1C	-24	1	3	4.3	-12	9	4085
COc1ccc(-c2cc3ccccc3[nH]2)cc1	-79	4	-17	3.1	15	0	4508
O=C(NCc1ccncc1)C(=O)NN=Cc1ccccn1	x	-1	x	1.9	6	24	x
Cc1ccccc1CCNC(=O)CCn1ccc2cc(S(=O)(=O)N3CCCC3)ccc21	-39	-1	-2	4.3	9	3	5796

Continued; it opens with the 5 that closed the last part.
SMILES	PrP 5UTR inh	Sa ugtP lethal	BJeLR viability	RN4220 kill	Mtb hypoxia rep	Mtb hypoxia rep growth	Autofluor counter
COc1ccc(CNCCC(c2ccc(OC(C)C)cc2)c2ccccc2OC)cc1 (configuration not stated)	-2	-32	11	-6.6	1	2	3636
Cc1oc2c(C)c3oc(=O)c(CCC(=O)NCCCCCC(=O)O)c(C)c3cc2c1C	-24	1	3	4.3	-12	9	4085
COc1ccc(-c2cc3ccccc3[nH]2)cc1	-79	4	-17	3.1	15	0	4508
O=C(NCc1ccncc1)C(=O)NN=Cc1ccccn1	x	-1	x	1.9	6	24	x
Cc1ccccc1CCNC(=O)CCn1ccc2cc(S(=O)(=O)N3CCCC3)ccc21	-39	-1	-2	4.3	9	3	5796
NC1=NC(=O)/C(=C/c2ccccc2OS(=O)(=O)c2ccc3ccccc3c2)S1	-21	3	2	11	6	-3	9960
Cc1ccc(OCCNC(=O)c2ccc(C)o2)cc1	-1	-5	x	-2.2	-6	3	3751
O=C(NC1CCN(S(=O)(=O)c2ccccc2C(F)(F)F)CC1)c1ccco1	-15	-1	-8	3.4	-12	-4	3481
CC(C)C[C@@H](CO)N1CCN(Cc2cccnc2)CCC1=O	3	x	3	x	x	x	2883
O=c1c(Cc2ccc(Cl)cc2Cl)c(O)ccn1CC(F)(F)F	-12	0	-5	7.5	-10	3	3829
COc1ccc(N/C(N)=N/c2nc(C)cc(=O)[nH]2)cc1	-64	6	-7	-2.6	5	3	4176
OC(CCCN1CCCCC1)(c1ccccc1)c1ccccc1	-2	-2	-20	3.3	2	-4	5914
O=C(O/N=C1\CCCc2ccccc21)c1cccs1	-11	x	4	x	x	x	3194
CC(=O)C[C@H]1c2cc(C(F)(F)F)ccc2S(=O)(=O)N1C1CCCC1	-5	x	10	x	x	x	3065
Cn1c2c(c(=O)n(C)c1=O)C(c1ccc(Cl)cc1)C(C#N)=C(N)O2 (configuration not stated)	-27	1	-5	5.5	9	4	2223
CCCCCCCCC(=O)N/N=C(\C)c1cccnc1	-5	x	-2	x	x	x	3543
Cc1cc(C)nc(SCC(=O)Nc2ccc(S(=O)(=O)NCCO)cc2)n1	-21	8	-9	3.7	6	2	23188*
COC(CNS(=O)(=O)c1ccc(S(=O)(=O)NC2CC2)cc1)OC	-29	3	0	3.7	-2	2	3688
